StopGo reporter – lowers the luciferase signal of an FMDV 2A StopGo reporter | 1.2% of 410,000 active | human cells with a luciferase reporter of 2A StopGo recoding; control for the full effect not named in the record | AID 1159524 | Potency, µM (top dose mostly 57.9 µM), for the others: at the top dose signal change, negative = less light; active = well fitted falling curve with a large enough effect; inconclusive = small, poorly fitted or top-dose-only effect; inactive = no such curve, though single readings can be large or run the other way; tested in HEK293T cells; further: nearly all actives have a fitted effect of over 45% in size; luciferase light after 4 h
RE007 growth inh – less growth of the S. pombe RE007 Vpr strain; S. pombe RE007 Vpr strain, BacTiter-Glo ATP luminescence, 24 h; control for the full effect not named in the record; Potency, µM (highest dose often 92.2 µM), inactives show at the highest dose activity change, negative = less growth; 0.21% of 360,000 active; active = well fitted falling curve with a large enough effect; inconclusive = small, poorly fitted or top-dose-only effect; inactive = no such curve, though single readings can be large or run the other way;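 further: nearly all actives have a fitted effect of over 50% in size; the assay follows cell death caused by Vpr and the record does not say whether a fall means rescue or toxicity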
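Fission yeast strain RE007, carrying one chromosomally integrated HIV-1 vpr copy, was seeded at OD 0.01 in PMG+AL medium with 23 nL pinned compound. After 24 h at 30 °C and 99% humidity, viability was read by BacTiter-Glo luminescence.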
Starred values were filed as active, the others as inactive; [ ] = dose if it differs, or a comment. On the % scale 0 is the no-effect control and ±100 the full control effect; potency means the concentration at half of the fitted maximal effect. Only part of the results is shown; count on the stated rates, not on these rows.

CCCNC(=O)C1(C)CCN(Cc2cc3ccccc3o2)C1 (configuration not stated) was read as StopGo reporter -12% and RE007 growth inh 62%.
O=C1CCC(C(=O)N2CCN(c3ccccc3)CC2)CN1Cc1ccc(Cl)cc1 (configuration not stated) was read as StopGo reporter 0% and RE007 growth inh -8%.
Screening COc1ccc(C(CC(=O)c2ccc(C)cc2)Sc2ccccc2N)cc1 (configuration not stated) returned StopGo reporter 49%[activator] and RE007 growth inh -6%.
CCOc1cccc(/C=C(\C#N)C(=O)NC2CC2)c1 was read as StopGo reporter -2% and RE007 growth inh -19%.
Screening COc1ccc2c(Cl)cc(NC(=O)Nc3c(C)cccc3C)nc2c1 returned StopGo reporter -14% and RE007 growth inh -2%.
Screening CCC1(O)C(=O)OCc2c1cc1n(c2=O)Cc2cc3cc(O)ccc3nc2-1 (configuration not stated) returned StopGo reporter 0% and RE007 growth inh -12%.
`C[C@@H]1CN([C@H](C)CO)C(=O)CCCn2cc(nn2)CO[C@H]1CN(C)C(=O)Nc1ccnc(N2CCOCC2)c1` gave StopGo reporter -17% and RE007 growth inh -11%.
Screening COc1cc(C(O)c2nc(-c3ccc(F)cc3OC)cs2)ccc1F (configuration not stated) returned StopGo reporter -21% and RE007 growth inh 28%.
`CC(OC(=O)[C@@H](NS(=O)(=O)c1ccccc1)C(C)C)C(=O)c1c(N)n(C)c(=O)n(C)c1=O` (some centres not stated) gave StopGo reporter -17% and RE007 growth inh -1%.
For CC(C)(C)c1ccc(NC(=O)c2cc(C3CCCN(C(=O)CCc4ccccc4)C3)on2)cc1 (configuration not stated) the results were StopGo reporter -15% and RE007 growth inh 10%.
COc1ccc(N2CCN(CC(=O)Nc3ccc(C)cc3Br)CC2)cc1 was read as StopGo reporter -11% and RE007 growth inh -17%.
For CC(C)(C)S(=O)N1Cc2cc(CO)cc(CCO)c2[C@@H]1CCO (some centres not stated) the results were StopGo reporter -22% and RE007 growth inh -7%.
For O=C(C1CCCCC1)N1C[C@@H](n2cc(-c3ccc(F)cc3)nn2)[C@H](O)C[C@@H]1c1ccc(Cl)cc1 the results were StopGo reporter inconclusive and RE007 growth inh 3%.
Cc1cc(N2CCN(C(=O)c3ccoc3)CC2)n2nc(-c3ccccc3)cc2n1 was read as StopGo reporter inconclusive and RE007 growth inh -20%.
Screening c1ccc2c(c1)C1=NCCN1c1ccccc1-2 returned StopGo reporter -18% and RE007 growth inh -4%.
For Nc1nc2c(nc(Br)n2[C@@H]2O[C@@H]3COP(=O)(O)O[C@H]3[C@H]2O)c(=O)[nH]1 the results were StopGo reporter -1% and RE007 growth inh 1%[18.4 µM].
For FCc1nc2nc(Cl)c(Cl)nc2[nH]1 the results were StopGo reporter -28% and RE007 growth inh 0%.
CSc1ncnc2c1ncn2CCCN[C@H](C)c1cccc2ccccc12 was read as StopGo reporter -15% and RE007 growth inh 3%.
For Cc1cc(Br)cn2c(CC(=O)N3CCCCC3)c(-c3ccc(F)cc3)nc12 the results were StopGo reporter -24% and RE007 growth inh -21%.
For CN1CCN(c2cc(-c3cccc(C(=O)O)c3)nc3ccnn23)CC1 the results were StopGo reporter -15% and RE007 growth inh -7%.
Screening CCCCOCCCNC(=O)C[C@@H]1C[C@@]2(C(=O)OCC)CCC=C2N(Cc2ccc3c(c2)OCO3)C1=O returned StopGo reporter -16% and RE007 growth inh 0%.
CC(C)(C)S(=O)N1Cc2cc(C(=O)NCc3ccc4c(c3)OCO4)nc(-c3cccc(-c4ccncc4)c3)c2[C@H]1CCO (some centres not stated) was read as StopGo reporter 16% and RE007 growth inh -20%.
Screening O=C(CCN1C(=O)c2ccccc2C1=O)c1ccccc1 returned StopGo reporter 78%[activator] and RE007 growth inh 12%.
For C[C@@H]1CN([C@H](C)CO)C(=O)c2cc(Br)cnc2O[C@@H]1CN(C)Cc1ccc(-c2ccccc2)cc1 the results were StopGo reporter -13% and RE007 growth inh -22%.
`CCOC(=O)[C@]12Cc3cc(N(C)C)ccc3[C@H]1N(Cc1ccccc1)C(=O)c1ccccc12` gave StopGo reporter 0% and RE007 growth inh -7%.
Screening CCN1C[C@@H]2[C@@H]3C(=O)N(C)C(=O)[C@@H]3[C@](Cc3ccccc3)(C(=O)OC)N2C1=NCc1ccccc1 returned StopGo reporter -3% and RE007 growth inh -11%.
For COc1cc(NS(=O)(=O)c2ccc(-n3cccn3)cc2)cc(OC)c1 the results were StopGo reporter 26% and RE007 growth inh 4%.
Screening COc1ccc(-c2csc(NC(CO)c3nc4ccccc4n3Cc3ccc(C)cc3)n2)cc1 (configuration not stated) returned StopGo reporter 18% and RE007 growth inh 0%.
`COc1ccc(C(=O)CC(C#N)c2ccc3c(c2)OCO3)cc1OC` (configuration not stated) gave StopGo reporter -18% and RE007 growth inh -4%.
Screening CCOC(=O)c1cc2c(c(-c3cccc(C#Cc4ccc(OC)c(OC)c4)c3)n1)[C@@H](CCO)N(S(=O)C(C)(C)C)C2 (some centres not stated) returned StopGo reporter -14% and RE007 growth inh 2%.
Screening COc1ccc(-c2cc(CNc3nc(NC(C)C)nc4cc(-c5ccccc5)sc34)on2)cc1 returned StopGo reporter -1% and RE007 growth inh -1%[18.4 µM].
Screening CCCCNC(=O)c1nc(C2CCN(S(=O)(=O)c3csc(C(=O)O)c3)CC2)oc1-c1ccccc1 returned StopGo reporter -12% and RE007 growth inh -10%.
`Cc1cccc(COC[C@H](Cc2ccccc2)N2CCN(C(=O)c3cc(Cl)cc(Cl)c3)CCC2=O)c1` gave StopGo reporter -25% and RE007 growth inh -10%.
For CCCc1nc2cc(C)c(Br)c(C)n2c1Cc1ccc(OC)cc1C the results were StopGo reporter -19% and RE007 growth inh -13%.
CC(O)(c1cccnc1)c1nc(/C=C/c2ccccc2)cs1 (configuration not stated) was read as StopGo reporter inconclusive and RE007 growth inh 15%.
For CC(C)C[C@H]1CNC(=S)N1CC1CCCN1C[C@H](CC(C)C)N1C[C@H](Cc2ccc(O)cc2)N(CC2CCCCC2)C1=S (some centres not stated) the results were StopGo reporter -27% and RE007 growth inh 10%.
Screening Cc1cccnc1NS(=O)(=O)c1ccccc1 returned StopGo reporter 15% and RE007 growth inh -9%.
Cc1cc(Cl)ccc1C(O)c1ncc(-c2cccc3ccccc23)[nH]1 (configuration not stated) was read as StopGo reporter 9% and RE007 growth inh -8%.
For CCOC(=O)[C@]12Cc3cc(Cl)ccc3[C@H]1N(C)C(=O)c1cc(OC)ccc12 the results were StopGo reporter 16µM* and RE007 growth inh 0%.
`CS(=O)(=O)c1ccc(C2=C(CNC(=O)c3nccs3)[C@H]3CC[C@@H](C2)N3Cc2ccco2)cc1` gave StopGo reporter -22% and RE007 growth inh -1%.
`Cc1ccc([C@H]2C[C@H](n3cc(COC(=O)c4ccccc4)nn3)[C@@H](O)CN2C(=O)c2cccs2)cc1` gave StopGo reporter -1% and RE007 growth inh -3%.
For CN(C(=O)COC(=O)Cc1ccc(Br)cc1)c1c(N)n(Cc2ccccc2)c(=O)[nH]c1=O the results were StopGo reporter -29% and RE007 growth inh -3%.
`Cc1cc2[nH]c3c4ccccc4nc(C)c3c2cc1C` gave StopGo reporter -13% and RE007 growth inh -9%.
Screening CC(C)(C)[C@@H]1C=C(C(=O)O)O[C@H](OCCCCO)C1 returned StopGo reporter -15% and RE007 growth inh 3%.
Cc1ccccc1-c1nc(S(=O)(=O)c2ccccc2)c(NCCN2CCOCC2)o1 was read as StopGo reporter 19% and RE007 growth inh 10%.
Screening CN(CCc1ccccc1)C(=O)CC1C(=O)NCCN1Cc1ccccn1 (configuration not stated) returned StopGo reporter -6% and RE007 growth inh 12%.
`COc1ccc(CNC(=O)O[C@]23C[C@H]4C(=O)N(c5ccccc5)C(=O)[C@H]4C[C@@]2(O)CN(S(=O)(=O)c2ccc(C)cc2)C3)cc1OC` gave StopGo reporter -17% and RE007 growth inh -13%.
C[C@H](CO)N1C[C@H](C)[C@H](CN(C)C(=O)c2ccncc2)OCc2cnnn2CCCC1=O was read as StopGo reporter -15% and RE007 growth inh 5%.
`CCOC(=O)C1(C)CCN1C(=O)c1cc(F)ccc1C` (configuration not stated) gave StopGo reporter -14% and RE007 growth inh -1%.
`CCCNC(=O)C1(C)CCN1C(=O)Cc1ccc(-c2ccccc2)cc1` (configuration not stated) gave StopGo reporter inconclusive and RE007 growth inh -13%.
Screening CS(=O)(=O)c1ccc(Nc2nc(C(N)Cc3ccccc3)cs2)cc1 (configuration not stated) returned StopGo reporter -24% and RE007 growth inh -6%[18.4 µM].
`COCC(=O)N1C[C@H]2CON(C)[C@H]2C[C@H]1c1ccc(N2CCCCC2)cc1` gave StopGo reporter 0% and RE007 growth inh -4%.
`CCc1nc2ccc(C(=O)N(CC)CCN(C)C)cn2c1N(CC)C(=O)NCCc1ccccc1` gave StopGo reporter 0% and RE007 growth inh -6%.
Screening OC(c1cc(F)cc(Cl)c1)c1ncc(-c2ccc3ccccc3c2)[nH]1 (configuration not stated) returned StopGo reporter -5% and RE007 growth inh -11%[18.4 µM].
For CCOC1=C2[C@@H](CN(S(=O)(=O)c3ccc(C)cc3)[C@H]2c2ccccc2F)[C@H]2C(=O)N(c3ccccc3)C(=O)[C@H]2C1 the results were StopGo reporter 22% and RE007 growth inh 0%.
`CCOC(=O)C1=CCN(S(=O)(=O)c2cccc(Cl)c2)C1c1ccc(Br)cc1` (configuration not stated) gave StopGo reporter -20% and RE007 growth inh 12%.
For OC(c1ccc(F)c(F)c1)c1ncc(-c2ccc(F)cc2)[nH]1 (configuration not stated) the results were StopGo reporter 43%[activator] and RE007 growth inh -14%.
CC(C)C[C@H]1CN([C@@H](CC(C)C)CN2CCCC2CN2C(=S)NC[C@@H]2Cc2ccc(O)cc2)C(=S)N1CC1CCCCCC1 (some centres not stated) was read as StopGo reporter inconclusive and RE007 growth inh 5%.
For CCCCCCN1C[C@H](O)[C@@H](n2cc(-c3ccc(F)cc3)nn2)C[C@@H]1c1ccc(Cl)cc1 the results were StopGo reporter inconclusive and RE007 growth inh -9%.
CCCCNC(=O)C1(C)CCN1C(=O)c1cccc(OC(C)=O)c1C (configuration not stated) was read as StopGo reporter -2% and RE007 growth inh 3%[18.4 µM].
Screening O=C([C@H]1O[C@@H](n2ccc(=O)[nH]c2=O)[C@H](O)[C@@H]1O)N1CCN(c2ccc(Cl)cn2)CC1 returned StopGo reporter -5% and RE007 growth inh 2%.
For CN(C)c1ccc(CNC(=O)/C=C/[C@H]2O[C@@H](n3cnc4c(NC(=O)c5ccccc5)ncnc43)[C@H](O)[C@@H]2O)cc1 the results were StopGo reporter -4% and RE007 growth inh 7%.
Screening CCOC(=O)[C@]12CCCC=C1N(Cc1ccco1)C(=O)[C@H](CC(=O)N1CCCC1)C2 returned StopGo reporter -6% and RE007 growth inh 3%.
`CC1(C(=O)NCc2cccc3ccccc23)CCN1Cc1ccc2ccccc2c1` (configuration not stated) gave StopGo reporter -10% and RE007 growth inh -6%.
For C[C@H](CO)N1C[C@H](C)[C@@H](CN(C)Cc2ccc3c(c2)OCO3)Oc2cc(Br)ccc2S1(=O)=O the results were StopGo reporter inconclusive and RE007 growth inh 14%.
`COc1ccc(NC(=O)C2c3ccccc3OCC(=O)N2Cc2cccnc2)cc1` (configuration not stated) gave StopGo reporter 1% and RE007 growth inh 4%.
CN(C)CCCNC(=O)c1cccc(-c2cnc3cccnn23)c1 was read as StopGo reporter -6% and RE007 growth inh -18%[18.4 µM].

Gathered by group: the entries above containing an NH in an aromatic ring.
For Nc1nc2c(nc(Br)n2[C@@H]2O[C@@H]3COP(=O)(O)O[C@H]3[C@H]2O)c(=O)[nH]1 the results were StopGo reporter -1% and RE007 growth inh 1%[18.4 µM].
For FCc1nc2nc(Cl)c(Cl)nc2[nH]1 the results were StopGo reporter -28% and RE007 growth inh 0%.
Cc1cc(Cl)ccc1C(O)c1ncc(-c2cccc3ccccc23)[nH]1 (configuration not stated) was read as StopGo reporter 9% and RE007 growth inh -8%.
For CN(C(=O)COC(=O)Cc1ccc(Br)cc1)c1c(N)n(Cc2ccccc2)c(=O)[nH]c1=O the results were StopGo reporter -29% and RE007 growth inh -3%.
`Cc1cc2[nH]c3c4ccccc4nc(C)c3c2cc1C` gave StopGo reporter -13% and RE007 growth inh -9%.
Screening OC(c1cc(F)cc(Cl)c1)c1ncc(-c2ccc3ccccc3c2)[nH]1 (configuration not stated) returned StopGo reporter -5% and RE007 growth inh -11%[18.4 µM].
For OC(c1ccc(F)c(F)c1)c1ncc(-c2ccc(F)cc2)[nH]1 (configuration not stated) the results were StopGo reporter 43%[activator] and RE007 growth inh -14%.
Screening O=C([C@H]1O[C@@H](n2ccc(=O)[nH]c2=O)[C@H](O)[C@@H]1O)N1CCN(c2ccc(Cl)cn2)CC1 returned StopGo reporter -5% and RE007 growth inh 2%.

Arranged by SMILES length (falling): part of the list above.
Screening CCOC(=O)[C@]12CCCC=C1N(Cc1ccco1)C(=O)[C@H](CC(=O)N1CCCC1)C2 returned StopGo reporter -6% and RE007 growth inh 3%.
`COc1ccc(NC(=O)C2c3ccccc3OCC(=O)N2Cc2cccnc2)cc1` (configuration not stated) gave StopGo reporter 1% and RE007 growth inh 4%.
`CC1(C(=O)NCc2cccc3ccccc23)CCN1Cc1ccc2ccccc2c1` (configuration not stated) gave StopGo reporter -10% and RE007 growth inh -6%.

Source: PubChem
